PrP 5UTR inh: inhibition of PrP 5' UTR reporter expression. cell-based PrP 5' UTR mRNA reporter, plate reader. inhibition, % (no concentration beside the values). 340,000 compounds, 0.35% hits. AID 488862;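 active = every replicate at 50% or more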;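 note: 0 = median of the neutral control wells; tested in H4 reporter cells; numbers are from one replicate; inactives centre near -14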
ugtP null kill: kills S. aureus RN4220 lacking UgtP; 330,000 compounds, 0.54% hits; growth inhibition, % (test concentration not listed); AID 1259309; S. aureus RN4220 ugtP deletion, OD600 growth, 16 h; some inactives read as strong as hits;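 active = z-score under -3 and OD600 up to 0.15 on both plates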;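 note: plate controls were untreated wells for no effect and antibiotic for full effect; wells of about 80 µL received 100 nL stock; the first replicate is given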
BJeLR lethal: BJeLR cell viability loss. inhibition, % (concentration not given with the values). AID 1554. BJeLR (HRASV12) viability, CellTiter-Glo ATP luminescence, 48 h; reference of the scale not given here. 300,000 compounds, 0.17% hits;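 active = replicate mean above 50%; inconclusive = above 50% but judged a plate artefact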;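 note: 50 nL library stock added to about 25 µL; numbers are from one replicate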
Mtb hypoxia inh: Mtb hypoxia fluorescent reporter inhibition | fluorescence inhibition, % (concentration not given with the values) | 300,000 compounds, 0.1% hits | M. tuberculosis hypoxia-regulated fluorescent reporter, fluorescence;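 active = 35 to 45% if threefold the growth effect, above 45% if 1.5-fold the growth effect; inactive = the rest, general growth blockers included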;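 note: wells of about 50 µL received 100 nL stock; 0% = vehicle wells and 100% = reference inhibitor wells; whole bacteria with a GFP reporter of the hypoxia response; strong numbers were not always called active; many hits fall short of the cut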
Autofluor counter: counter-screen for toxin protease inhibitors: compound fluorescence; compound autofluorescence counterscreen, microsphere flow cytometry; hits give high values; fluorescence intensity (test concentration not listed); 360,000 compounds, 3.1% hits;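 active = at least 3 SD above the mean of all compounds, about 16000 in these data; inconclusive = too few beads counted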;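 note: 100 nL of 1 mM stock went into each well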
RN4220 kill: S. aureus RN4220 growth inhibition | OD600, 16 h | inhibition, % (no concentration beside the values) | 330,000 compounds, 0.33% hits;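 active = z-score of -3 or lower and OD600 up to 0.18 on both plates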;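 note: plate controls were untreated cells for no effect and reference antibiotic for full effect; stock transfer was 100 nL into about 80 µL; one replicate is shown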
Mtb hypoxia inh growth: recorded beside Mtb hypoxia inh, whose call it bears; growth inhibition, %; measured here: M. tuberculosis growth (absorbance);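 0% = vehicle and 100% = reference antibiotic; read after six days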
Starred values were filed as active, the others as inactive; u = inconclusive; x = not tested or not shown.

SMILES	PrP 5UTR inh	ugtP null kill	BJeLR lethal	Mtb hypoxia inh	Mtb hypoxia inh growth	Autofluor counter	RN4220 kill
CCc1ccccc1NC(=O)c1ccc2snnc2c1	-5.3	-3.1	3.1	1.7	0.4	4485	-3.5
O=C(O)c1ccccc1-c1ccccc1C(=O)Nc1ccc2c(c1)[nH]c(=O)c1ccccc12	x	3.6	4.6	x	x	3462	6.1
Cc1ccc(S(=O)(=O)NCC(=O)OCC(=O)Nc2cccc(S(=O)(=O)NC3=NCCCCC3)c2)cc1C	-17.2	6.9	-8.1	12.0	-0.3	4748	1.9
Cc1c(/C=N/NC(=O)c2ccccc2O)c2ccccn2c1C(=O)c1ccc(F)cc1	-12.8	x	16.5	x	x	1890	x
CC(=O)Nc1ccc(N(C(=O)c2ccccn2)C(C(=O)NC2CCCCC2)c2ccc(F)cc2)cc1 (configuration not stated)	-30.3	7.4	2.4	-6.0	-6.3	3107	4.1
CC(=NNC(=O)c1cccc(F)c1)c1ccc(NC(=O)Cc2ccccc2)cc1	x	0.2	x	5.0	11.7	x	0.7
COc1ccc(NC(=O)c2cn(CCC#N)nc2-c2ccc(OC)c(OC)c2)cc1	8.8	10.3	-4.4	8.0	0.4	4424	1.6
CCOC(=O)CSC1=C(C#N)C(c2ccco2)C(C(=O)Nc2cccc(C(F)(F)F)c2)=C(C)N1 (configuration not stated)	-21.0	-10.0	21.4	14.1	6.0	25424*	27.7
Cc1ccc(NC(=O)C2CCCN2C(=O)c2cccs2)cc1C (configuration not stated)	x	-2.9	x	12.6	9.5	x	2.0
COC(=O)[C@]1(Cc2ccccc2)N[C@H](CN(C)S(=O)(=O)c2ccc(-c3ccccc3)cc2)[C@@H]2C(=O)N(C)C(=O)[C@@H]21	-11.8	7.4	x	0.5	1.5	2915	6.9
CCN(CC)c1ccc(Nc2nc(Cl)ncc2Br)cc1	x	-3.2	-3.7	6.6	-5.4	3629	0.9
COc1ccc(CC(=O)OCC(=O)NC(=O)NC23CC4CC(CC(C4)C2)C3)cc1	-22.5	15.0	-8.2	5.8	9.9	24237*	3.2

Entries listed so far with a cyano group:
SMILES	PrP 5UTR inh	ugtP null kill	BJeLR lethal	Mtb hypoxia inh	Mtb hypoxia inh growth	Autofluor counter	RN4220 kill
COc1ccc(NC(=O)c2cn(CCC#N)nc2-c2ccc(OC)c(OC)c2)cc1	8.8	10.3	-4.4	8.0	0.4	4424	1.6
CCOC(=O)CSC1=C(C#N)C(c2ccco2)C(C(=O)Nc2cccc(C(F)(F)F)c2)=C(C)N1 (configuration not stated)	-21.0	-10.0	21.4	14.1	6.0	25424*	27.7

An excerpt of these results, with bars between the fields:
SMILES | PrP 5UTR inh | ugtP null kill | BJeLR lethal | Mtb hypoxia inh | Mtb hypoxia inh growth | Autofluor counter | RN4220 kill
CC(=O)Nc1ccc(N(C(=O)c2ccccn2)C(C(=O)NC2CCCCC2)c2ccc(F)cc2)cc1 (configuration not stated) | -30.3 | 7.4 | 2.4 | -6.0 | -6.3 | 3107 | 4.1
CC(=NNC(=O)c1cccc(F)c1)c1ccc(NC(=O)Cc2ccccc2)cc1 | x | 0.2 | x | 5.0 | 11.7 | x | 0.7
COc1ccc(NC(=O)c2cn(CCC#N)nc2-c2ccc(OC)c(OC)c2)cc1 | 8.8 | 10.3 | -4.4 | 8.0 | 0.4 | 4424 | 1.6

Some of these compounds in order of count of non-hydrogen atoms, high to low.
SMILES	PrP 5UTR inh	ugtP null kill	BJeLR lethal	Mtb hypoxia inh	Mtb hypoxia inh growth	Autofluor counter	RN4220 kill
COC(=O)[C@]1(Cc2ccccc2)N[C@H](CN(C)S(=O)(=O)c2ccc(-c3ccccc3)cc2)[C@@H]2C(=O)N(C)C(=O)[C@@H]21	-11.8	7.4	x	0.5	1.5	2915	6.9
Cc1ccc(S(=O)(=O)NCC(=O)OCC(=O)Nc2cccc(S(=O)(=O)NC3=NCCCCC3)c2)cc1C	-17.2	6.9	-8.1	12.0	-0.3	4748	1.9
CC(=O)Nc1ccc(N(C(=O)c2ccccn2)C(C(=O)NC2CCCCC2)c2ccc(F)cc2)cc1 (configuration not stated)	-30.3	7.4	2.4	-6.0	-6.3	3107	4.1
COc1ccc(NC(=O)c2cn(CCC#N)nc2-c2ccc(OC)c(OC)c2)cc1	8.8	10.3	-4.4	8.0	0.4	4424	1.6
COc1ccc(CC(=O)OCC(=O)NC(=O)NC23CC4CC(CC(C4)C2)C3)cc1	-22.5	15.0	-8.2	5.8	9.9	24237*	3.2

Next part.
SMILES	PrP 5UTR inh	ugtP null kill	BJeLR lethal	Mtb hypoxia inh	Mtb hypoxia inh growth	Autofluor counter	RN4220 kill
COc1ccc(Cl)cc1-c1nc(SCC(=O)NCCN2C(=O)CSC2=O)n[nH]1	-8.1	11.3	-9.6	-8.8	2.2	2073	6.3
COc1ccc(C(=O)Nc2cc(C)c(NC(=O)c3ccccn3)cn2)cc1	-27.1	3.2	-15.0	6.2	4.6	5591	1.4
CCc1ccc(NC(=O)CNC(=O)[C@@H]2Cc3ccccc3CN2)cc1	-25.0	12.6	1.4	15.6	7.1	5364	4.6
COc1cc(NC(=O)c2cccc(C)c2)c(Cl)cc1[N+](=O)[O-]	-8.7	5.6	-10.6	8.1	1.3	1987	9.1
COc1ccc(C(=O)N(CC2CCCO2)C(C(=O)NC2CCCC2)c2ccc(C)cc2)cc1OC (configuration not stated)	-41.2	3.3	1.7	13.1	17.2	5870	1.0
COc1cc(Cl)c(C)cc1NC(=O)CSC1=NCCS1	-12.2	0.2	x	-0.9	1.6	4046	10.1
Cc1cccnc1NC(=O)CCc1nnc2ccc(NCc3ccco3)nn12	-17.1	0.8	9.2	-3.0	6.6	5661	-0.2
CC(=O)N(c1ccccc1)c1c(F)c(F)c(F)c(F)c1F	-0.8	5.7	-6.6	15.7	2.8	u	6.0
Cc1ccc(-c2csc(N(CCCN(C)C)C(=O)c3ccco3)n2)cc1	-29.6	0.2	-10.1	12.1	5.5	4232	-1.1
Cc1ccc(C(=O)CCC(=O)OCC(=O)N(C)c2c(N)n(Cc3ccccc3)c(=O)[nH]c2=O)cc1	-60.9	-0.4	-4.9	5.6	1.0	x	2.4
O=C(COC(=O)c1ccc(F)cc1)Nc1ccccc1N1CCOCC1	-4.7	-2.8	-1.3	x	x	2658	2.5
COc1ccc2nc(Nc3nc(C)c(C(C)=O)s3)sc2c1	-89.8	-11.1	0.9	-3.6	-0.1	4253	2.0
COc1ccc(/C(C)=N/NC(=O)CNC(=O)COc2ccccc2)c(OC)c1	-8.9	x	-4.2	x	x	5747	x
CN(CC1CCOCC1)C(=O)CC1C(=O)NCCN1CC(c1ccccc1)c1ccccc1 (configuration not stated)	0.0	8.4	-6.6	-1.5	-2.6	5998	1.3
CCN1C(=NCC(C)C)N[C@@H](c2cccc(C(F)(F)F)c2)C(C(=O)OC)=C1C	-2.6	x	4.9	x	x	3803	x
CN(C(=S)Nc1ccc(SC(F)F)cc1)c1ccc(O)cc1	-20.2	-0.4	-7.3	x	x	2397	0.6
O=C(O)CCCN1C(=O)/C(=C/c2ccc(-c3nc4ccccc4s3)o2)SC1=S	-106.7	-11.4	-8.0	8.3	11.3	2489	-3.7
CN(O)C=NC(=S)Nc1ccc(Cl)cc1Cl	x	8.4	x	18.3	8.1	x	6.9
N#Cc1nc(Cc2ccccc2)oc1N1CCN(c2cccc(Cl)c2)CC1	-7.1	10.9	9.0	-15.0	-2.6	11472	-2.6
c1cncc(-c2nc(NCc3ccco3)c3ccccc3n2)c1	-42.8	-14.4	7.8	3.0	9.7	3982	10.0
O=C(ONC(=O)C1C2C=CC(C2)C1C(=O)NOC(=O)c1ccccc1)c1ccccc1 (configuration not stated)	-10.9	27.2	x	6.8	5.7	3618	1.6
O=C(Nc1nccs1)c1nc(-c2ccccc2)n(-c2ccccc2)n1	1.8	0.9	-8.9	9.0	17.4	9416	5.3
CC(CCO)Nc1nc2c([nH]1)c(=O)n(C)c(=O)n2C (configuration not stated)	-47.8	-3.3	-15.0	-8.4	-2.0	4188	-1.5
O=C1CN(C(=O)/C=C/c2ccc(Br)cc2)CCN1	-15.9	5.4	-2.8	11.2	0.8	3029	3.6
CCN(CC(=O)Nc1cc(Cl)ccc1C)C(=O)C1COc2ccccc2O1 (configuration not stated)	2.0	-0.6	x	5.9	13.7	3535	2.0

Shown with two lines to a compound: 2 of the compounds above.
Sequence of screens: PrP 5UTR inh	ugtP null kill	BJeLR lethal	Mtb hypoxia inh	Mtb hypoxia inh growth	Autofluor counter	RN4220 kill
N#Cc1nc(Cc2ccccc2)oc1N1CCN(c2cccc(Cl)c2)CC1
  -7.1	10.9	9.0	-15.0	-2.6	11472	-2.6
CN(O)C=NC(=S)Nc1ccc(Cl)cc1Cl
  x	8.4	x	18.3	8.1	x	6.9

Screens: PubChem BioAssay, several laboratories
